# Bioassay records (PubChem BioAssay)
# Autofluor counter = flagged as autofluorescent in microsphere protease counterscreen; fluorescence intensity (test concentration not listed); compound autofluorescence counterscreen, microsphere flow cytometry; stronger effect = higher value; actives 3.1% (n = 360,000); AID 624483;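 active means at least 3 SD above the mean of all compounds, about 16000 in these data; inconclusive means too few beads counted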;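 further: 100 nL of 1 mM stock went into each well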
# PrP 5UTR inh = inhibition of PrP 5' UTR reporter expression | cell-based PrP 5' UTR mRNA reporter, plate reader | actives 0.35% (n = 340,000) | inhibition, % (no concentration beside the values);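 active means every replicate at 50% or more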;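 further: 0 = median of the neutral control wells; tested in H4 reporter cells; numbers are from one replicate; inactives centre near -14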
# BJeLR lethal = BJeLR cell viability loss. BJeLR (HRASV12) viability, CellTiter-Glo ATP luminescence, 48 h; reference of the scale not given here. inhibition, % (test concentration not listed). actives 0.17% (n = 300,000). AID 1554;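 active means replicate mean above 50%; inconclusive means above 50% but judged a plate artefact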;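 further: 50 nL library stock added to about 25 µL; numbers are from one replicate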
# Mtb hypoxia inh = reduces hypoxia-regulated biosensor signal in M. tuberculosis. fluorescence inhibition, % (test concentration not listed). M. tuberculosis hypoxia-regulated fluorescent reporter, fluorescence. actives 0.1% (n = 300,000);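 active means 35 to 45% if threefold the growth effect, above 45% if 1.5-fold the growth effect; inactive means the rest, general growth blockers included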;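 further: wells of about 50 µL received 100 nL stock; 0% = vehicle wells and 100% = reference inhibitor wells; whole bacteria with a GFP reporter of the hypoxia response; strong numbers were not always called active; many hits fall short of the cut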
# Sa ugtP lethal = growth inhibition of S. aureus ugtP deletion strain | S. aureus RN4220 ugtP deletion, OD600 growth, 16 h; some inactives read as strong as hits | growth inhibition, % (test concentration not listed) | actives 0.54% (n = 330,000);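 active means z-score under -3 and OD600 up to 0.15 on both plates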;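 further: plate controls were untreated wells for no effect and antibiotic for full effect; wells of about 80 µL received 100 nL stock; the first replicate is given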
# Sa RN4220 lethal = kills Staphylococcus aureus RN4220. S. aureus RN4220 growth, OD600, 16 h. inhibition, % (no concentration beside the values). actives 0.33% (n = 330,000);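 active means z-score of -3 or lower and OD600 up to 0.18 on both plates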;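 further: plate controls were untreated cells for no effect and reference antibiotic for full effect; stock transfer was 100 nL into about 80 µL; one replicate is shown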
# Mtb hypoxia inh growth = also measured in Mtb hypoxia inh; calls as there; growth inhibition, %; measured here: M. tuberculosis growth (absorbance);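 0% = vehicle and 100% = reference antibiotic; read after six days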
# An asterisk follows results filed as active; ? = inconclusive; · = not tested or not shown; & = joins results of further samples. Not a hit list; about 4.1% have a hit in one of these screens.
# Below each compound – Autofluor counter	PrP 5UTR inh	BJeLR lethal	Mtb hypoxia inh	Mtb hypoxia inh growth	Sa ugtP lethal	Sa RN4220 lethal
COC(=O)C1=NNC2(C)C(=O)N(c3ccc(C)cc3)C(=O)C12 (configuration not stated)
  4612	-10	-13	3	3	0	0.2
NCCCC[C@@H]1NC(=O)c2cc([N+](=O)[O-])cc(I)c2SC[C@@H](C(N)=O)NC(=O)[C@H](CCC(N)=O)NC1=O
  3088	-14	1	·	·	·	·
COCCN(CCOC)c1nc(S(=O)(=O)c2ccc(C)cc2)c(Cl)s1
  9281	-14	-4	7	4	0	2.3
COC(=O)C1=C(C)Nc2c(c(=O)n(C)c(=O)n2C)C1c1ccc(C)cc1 (configuration not stated)
  3365	-13	·	4	-3	3	1.6
COc1ccc(C(=O)NCC(=O)NN=C(C)c2ccco2)cc1OC
  ·	·	·	-12	-3	10	6.7
CC1CN(C(=O)c2cc(F)c(F)cc2Cl)CC(C)O1 (configuration not stated)
  9582	-7	-1	4	8	4	1.9
COc1ccc(Cc2c[nH]c(=O)[nH]c2=O)cc1
  3863	-38	-12	7	7	-2	2.6
CCCCN(CC)Cc1ccc(CNC(=S)Nc2ccccc2F)o1
  4666	-35	-12	5	4	7	0.4
COc1ccccc1N1C(=O)CC(c2ccccc2)CC1=O
  4234	-32	·	22	8	6	6.4
COCCOC(=O)C(C#N)c1nc2ccccc2nc1N1CCN(Cc2ccccc2)CC1 (configuration not stated)
  2418	2	-10	·	·	5	4.1
Cc1cc2c(cn1)C(CCC#N)(CCC#N)c1ccccc1-2
  3809	-36	-4	-4	-2	-2	-1.9
C=CCSc1nc2c(sc3nc(C)cc(C)c32)c(=O)[nH]1
  6932	-26	3	7	6	-2	14
Cc1cc(C)c(S(=O)(=O)N2CCCCC2CCNC(=O)C(=O)NCCN2CCOCC2)c(C)c1 (configuration not stated)
  ?	-15	-9	·	·	·	·
Cc1nn(-c2ccccc2)c(Cl)c1C=NNC(=O)c1ccco1
  ·	·	·	5	8	2	0.2
COC(=O)c1ccc(C(=O)OC)c(NC(=O)COC(=O)c2ccccc2OC)c1
  2608	11	-6	15	10	-5	-1.6
Cc1cc(C)c(S(=O)(=O)Nc2cc(SCC(=O)O)c(O)c3ccccc23)cc1C
  ·	·	2	15	13	11	16
COc1ccccc1N(CC(=O)Nc1cccc(C(F)(F)F)c1)S(C)(=O)=O
  4578	-16	-1	5	4	1	4.3
COc1ccc(CN(C(=O)CNC(=O)c2ccco2)C(C(=O)NC2CCCC2)c2ccco2)cc1 (configuration not stated)
  4716	-12	7	-4	4	1	2.1
O=C(CSCc1cnn(-c2ccccc2)c1-n1cccc1)N1CCN(Cc2ccccc2)CC1
  18611*	-20	-1	4	12	-4	5.5
COc1ccc(C2C(C(=O)c3sc(C)nc3C)=C(O)C(=O)N2CCN2CCOCC2)cc1 (configuration not stated)
  4779	-27	-4	·	·	-3	-3.0
Cc1cccc([C@@H]2[C@@H]3C(=O)N(C)C(=O)[C@@H]3[C@@H]3C(=O)Nc4ccccc4C(=O)N23)c1
  2865	-8	-6	·	·	·	·
CC(=Nn1cnnc1)c1ccccc1
  ·	·	·	10	0	5	1.5
Cn1cnc(C(=O)NCc2ccc(CNC(=O)OC(C)(C)C)cc2)c1C(=O)NCc1ccc(CNC(=O)OC(C)(C)C)cc1
  3787	-23	·	10	9	5	7.0
O=C(c1ccc2c(c1)OCO2)C1CCCN(Cc2ccccc2OC(F)F)C1 (configuration not stated)
  5872	-18	-2	-3	4	9	2.6
Cc1ccc(NC2=Nc3ccccc3CC2)cc1
  3256	-49	13	-11	10	-8	-6.7
O=C(Cc1ccc(Cl)cc1)N1CCC2(CC1)NCCc1[nH]cnc12
  4963	-32	7	-2	-5	2	0.8
C#CCOc1ccc(C2C3=C(COC3=O)Nc3cc4c(cc32)OCO4)cc1OC (configuration not stated)
  4356	16	61*	-2	2	8	1.4
Cc1ccc(-c2cc(C(=O)Nc3ccc(S(=O)(=O)Nc4onc(C)c4C)cc3)[nH]n2)c(O)c1
  4245	-15	12	15	6	0	0.1
Cc1cccc2c(N=Nc3ccccc3)c(O)[nH]c12
  3701	-69	1	16	2	10	-2.7
CCCn1c(Oc2ccccc2)nc2c1c(=O)n(C)c(=O)n2C
  ·	12	-1	0	1	4	5.9
COc1ccc(CC(CN)c2ccccc2)cc1 (configuration not stated)
  3943	-7	-4	-2	0	3	-4.8
Cc1ccc2c(CC(=O)OCn3nnc4ccccc4c3=O)coc2c1
  3131	2	7	·	·	-4	1.5
O=C(Nc1cccnc1)c1cc2c(ccc3ccccc32)o1
  23266*	-70	2	-1	6	0	2.7
CC(C)c1nc2oc3c(NCC4CCCO4)ncnc3c2c2c1CCC2 (configuration not stated)
  4256	1	-4	13	16	8	4.0
O=C(NCC(c1cccnc1)N1CCN(c2ccccc2)CC1)Oc1ccccc1 (configuration not stated)
  7994	-17	-3	13	4	5	2.9
COc1ccc(NC(=O)CSc2nc3nc(-c4cccs4)cc(C(F)(F)F)c3c(=O)[nH]2)c(OC)c1
  2445	-15	6	-1	7	2	6.0
C[C@@H]1CN([C@@H](C)CO)C(=O)c2cc(NC(=O)C3CC3)ccc2O[C@@H]1CN(C)Cc1ccc(Cl)c(Cl)c1
  3858	47	·	3	13	0	4.8
NNC(=O)Cc1cn(-c2ncc(C(F)(F)F)cc2Cl)c2ccccc12
  2773	-6	7	·	·	21	-0.5
Cc1ccc(-n2c(C)cc(C=C3C(=O)N(C)C(=O)N(C)C3=O)c2C)cc1
  5896	-13	·	18	2	12	5.0
O=[N+]([O-])c1cccc(N/N=C/c2ccc(N3CCOCC3)cc2)c1
  3560	-87	-1	·	·	·	·
Cc1ccc(S(=O)(=O)Oc2ccc(C=NNC(=O)c3c(Cl)cnn3C)cc2)cc1
  ·	·	·	5	3	-2	4.2
O=C(CCNC(=O)c1ccc(Cl)cc1)Nc1ccc(Cl)cc1F
  2011	-27	0	0	10	25	21
CCc1nnc(NC(=O)CSc2nnc(CNc3cccc(C)c3)n2-c2ccccc2)s1
  8374	-2	1	3	6	-6	3.5
COc1ccc2c(c1)cc1n2CCN2CCCN=C12
  10393	-18	-4	19	11	3	3.4
COc1ccc(CCNC(=O)c2nc(-c3cccs3)no2)cc1OC
  2599	-15	-9	15	4	-5	6.0
CC1CC(C)CN(CC(=O)Nc2ccc3c(c2)OCCO3)C1 (configuration not stated)
  3938	-32	-6	-6	1	-2	-6.4
COc1ccc(-c2noc(COc3ccc4c(c3)OCO4)n2)cc1
  8799	-6	1	-4	-3	-3	2.5
COc1cc(CC(C)N)c(OC)cc1I (configuration not stated)
  5297	-4	3	6&0	3&0	2&-1	8.3&4.9
COc1cccc(CNC(=O)Cc2csc(Nc3nc(=S)[nH]c4ccccc34)n2)c1
  3269	-16	1	13	5	4	-8.3
COc1ccc(CN(C)C(=O)c2ccc(NC(=O)CC3SC(N4CCCC4)=NC3=O)cc2)c(OC)c1OC (configuration not stated)
  ?	-3	-10	-6	4	2	-2.2
CC(C)(C)c1cccc(/C=N/O)c1O
  4082	-7	-1	·	·	·	·
Cc1cc(/C=N/NC(N)=S)c(C)n1-c1ccc(Cl)c(Cl)c1
  2176	-10	-2	·	·	·	·
CCC(C)NC(=O)CSc1nnc(-c2ccc(OC)c(OC)c2)c(-c2ccc(OC)c(OC)c2)n1 (configuration not stated)
  2953	-21	-4	-16	2	6	1.6
CCOC(=O)N1CCN(Cc2nc(C3CC3)no2)CC1
  2037	-20	-1	1	4	7	5.3
CC1(C)CC(=O)C2=C(C1)NC(Nc1nc3ccccc3o1)=NC2c1ccccn1 (configuration not stated)
  3247	-2	-13	-4	4	8	3.2
COc1ccc(NC(=O)CSc2nc3ccccc3cc2Cc2ccccc2)cc1
  11587	-20	-11	12	1	34	-7.0
COC(=O)C1CC(=O)c2sccc2C1 (configuration not stated)
  2477	-11	1	-7	-3	-1	-8.2
O=C(O)C(Cc1ccccc1)N1Cc2ccccc2C1=O (configuration not stated)
  3870	-6	5	·	·	7	1.5
Cc1noc(C)c1C(=O)N1CCCC(C(=O)c2cccc(C(F)(F)F)c2)C1 (configuration not stated)
  2170	-18	1	9	1	10	5.6
Cc1ccc(S(=O)(=O)N2CCN(C)CC2)cc1[N+](=O)[O-]
  9815	-22	-15	5	8	5	7.1

# The results go on:
# Below each compound – Autofluor counter	PrP 5UTR inh	BJeLR lethal	Mtb hypoxia inh	Mtb hypoxia inh growth	Sa ugtP lethal	Sa RN4220 lethal
CCn1ccnc1CN(C)Cc1cn(-c2ccccc2)nc1-c1ccc(OC)cc1F
  4619	-17	-9	-9	-6	-4	-4.7
CC(=NOCC(=O)NC12CC3CC(CC(C3)C1)C2)c1cc2ccccc2o1
  ·	·	·	0	-2	34	-8.7
O=S(=O)(NCCSc1nnnn1-c1ccccc1)c1cccs1
  4993	-38	-1	·	·	-4	1.8
COc1cc(C2Nc3c(F)cccc3C3C=CCC32)cc(Br)c1OC (configuration not stated)
  5041	-34	1	10	2	7	-4.3
COc1cccc(OC)c1C(=O)Nc1ccc2nc(C)c(C)nc2c1
  3208	-22	-2	8	0	2	2.7
CC(OC(=O)C1CC(=O)N(Cc2ccco2)C1)C(=O)Nc1ccc(F)cc1Cl (configuration not stated)
  3431	-23	·	8	9	3	2.4
Cc1cc(OCC(O)CN2CCCC2)ccc1C(C)C (configuration not stated)
  4524	-4	2	2	6	14	4.5
O=C1c2ccccc2C(=O)C1(CO)c1ccccc1
  2269	-34	6	15	7	-3	4.1
NC(=O)C1CCN(S(=O)(=O)c2cccc(C(=O)O)c2)CC1
  4846	-3	1	·	·	-3	2.4
CN(C)C(=O)CCc1ccc2c3c([nH]c2c1)[C@]1(CCC2CCCC2)[C@@H](C(=O)N2CCOCC2)C[C@H](CC(=O)NCCc2ccccn2)C(=O)N1CC3
  3543	-10	·	-7	8	3	-2.9
COc1ccccc1-n1c(C)nc2cc(C(=O)NCC3CCCO3)ccc21 (configuration not stated)
  4191	-13	-13	3	1	0	1.0
CS(=O)(=O)N1CCN=C1SCc1cccc(F)c1
  5389	-13	8	3	2	8	3.5
Cc1ccc(-n2nc3c(c2NC(=O)CC(C)C)CS(=O)C3)cc1 (configuration not stated)
  5821	-28	-5	5	3	7	2.7
Cc1ccc(/C(O)=C2/C(=O)C(=O)N(c3ccccn3)C2c2ccc([N+](=O)[O-])cc2)cc1 (configuration not stated)
  4343	-29	-8	3	5	-4	3.8
COc1ccccc1CNC(=O)C1CCN(S(=O)(=O)c2ccc3c(c2)OCCCO3)CC1
  2647	-14	-2	2	4	7	2.1
COC(=O)CC1NCCNC1=O (configuration not stated)
  9025	-20	-12	14	7	6	6.4
COc1ccccc1CCC(=O)OCC(=O)Nc1cc(S(=O)(=O)N2CCOCC2)ccc1C
  5194	1	1	1	10	1	0.9
Nc1nnn(CC(=O)NN=Cc2ccccc2)n1
  ·	·	·	-8	3	7	2.8
COc1ccc(C(=O)N2CCNC(=O)C2CC(=O)Nc2cc(Cl)ccc2OC)cc1 (configuration not stated)
  3752	-22	-5	4	4	10	2.6
O=C(NC1CCS(=O)(=O)C1)c1cn(-c2ccccc2)nc1-c1ccccc1 (configuration not stated)
  4733	5	8	-2	0	-9	-7.4
O=C(CN1C(=O)c2cccc3cccc(c23)C1=O)NCCN1CCOCC1
  4307	-7	7	-17	-9	7	1.5
O=C(O)CC(c1cccc(O)c1)N1Cc2ccccc2C1=O (configuration not stated)
  3744	-22	8	7	-11	6	3.5

# Compounds listed so far that contain a cyano group:
# Below each compound – Autofluor counter	PrP 5UTR inh	BJeLR lethal	Mtb hypoxia inh	Mtb hypoxia inh growth	Sa ugtP lethal	Sa RN4220 lethal
COCCOC(=O)C(C#N)c1nc2ccccc2nc1N1CCN(Cc2ccccc2)CC1 (configuration not stated)
  2418	2	-10	·	·	5	4.1
Cc1cc2c(cn1)C(CCC#N)(CCC#N)c1ccccc1-2
  3809	-36	-4	-4	-2	-2	-1.9
